Source: PubChem BioAssay (National Center for Advancing Translational Sciences (NCATS))
D2 agonist: activates the human D2 dopamine receptor; P14416; DiscoveRx PathHunter D2 beta-arrestin, luminescence, 90 min; 100% = 57 uM dopamine signal; activation, % (no concentration beside the values); 360,000 tested, 0.084% active; AID 624465; in the data active = activation above about 40%; inconclusive = about 15% to 40%; inactive = below about 15%; note: compound concentration not given in the record; the text of the record calls up to 30% inactive
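DiscoveRx PathHunter D2 beta-arrestin cells (2,100/well) attached overnight, then compound-stimulated 90 min at 37 C in HBSS/10 mM HEPES/0.1% Tween-20 buffer; beta-galactosidase complementation read by luminescence after 1 h at ambient temperature. Dopamine 57 uM final (EC100) as control.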
D2 PAM: positive allosteric modulators of human D2 dopamine receptor; P14416; DiscoveRx D2 beta-arrestin cells, luminescence, 90 min; 100% = 57 uM dopamine signal; potentiation, % (no concentration beside the values); 360,000 tested, 0.23% active; active = potentiation of 50% or more; inconclusive = 30% to 50%; inactive = 30% or less;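 note: compound concentration not given in the record; tested on top of an EC20 dose of dopamine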
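PathHunter beta-arrestin assay in DiscoveRx D2 cells. Compounds were added with an EC20 of dopamine (50 nM final) for 90 min at 37 deg C. Luminescence was read 1 h after detection reagent, with 57 uM dopamine as the EC100 control.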
TRPML1 agonist: agonists of human TRPML1 channel | TRPML1-expressing cells, Ca2+ dye fluorescence, FDSS; host cell line not named in the record; reference of the full effect not given here | AID 624414 | activation, % (no concentration beside the values) | 410,000 tested, 0.12% active | Q9GZU1; in the data active = activation above about 50%; inconclusive = about 30% to 50%; inactive = below about 30%; note: 0% is about no effect; the text of the record puts the active cut at 80%
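In this qHTS format, compounds were pin-transferred onto Ca8-dye-loaded TRPML1-DL cells induced with Tet overnight, and intracellular Ca2+ fluorescence was recorded kinetically for 110 s after a 10 s baseline. A subsequent 4uM final 54-4 (EC80) addition followed by a second 110 s read served as the antagonist phase.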
Six1-Eya2 blk: Six1/Eya2 interaction inhibition | AlphaScreen GST-Six1/His-Eya2 binding, biochemical; active compounds read low; control for the full effect not named in the record | activity change, % (concentration not given with the values) | 360,000 tested, 0.56% active | AID 651725; in the data active = activity change below about -65%; inconclusive = about -30% to -65%; inactive = above about -30%; note: % is set by controls: 0 for no effect and ±100 for the full control effect
Target sequence (O00167 whole entry, looked up): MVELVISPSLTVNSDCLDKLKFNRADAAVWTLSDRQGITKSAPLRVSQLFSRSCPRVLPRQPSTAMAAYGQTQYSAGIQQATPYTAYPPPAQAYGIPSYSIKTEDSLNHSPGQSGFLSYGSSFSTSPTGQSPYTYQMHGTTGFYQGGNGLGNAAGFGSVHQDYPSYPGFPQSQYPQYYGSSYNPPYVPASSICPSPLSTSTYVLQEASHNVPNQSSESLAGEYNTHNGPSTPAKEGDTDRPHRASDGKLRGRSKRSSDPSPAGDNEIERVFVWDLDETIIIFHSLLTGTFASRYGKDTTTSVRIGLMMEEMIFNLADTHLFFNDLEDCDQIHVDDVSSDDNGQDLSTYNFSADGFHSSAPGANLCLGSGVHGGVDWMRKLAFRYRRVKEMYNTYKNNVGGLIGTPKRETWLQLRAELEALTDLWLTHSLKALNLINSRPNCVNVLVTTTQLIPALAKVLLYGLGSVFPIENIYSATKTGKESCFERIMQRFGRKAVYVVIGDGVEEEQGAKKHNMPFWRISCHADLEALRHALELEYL
Target sequence (Q15475 whole entry, looked up): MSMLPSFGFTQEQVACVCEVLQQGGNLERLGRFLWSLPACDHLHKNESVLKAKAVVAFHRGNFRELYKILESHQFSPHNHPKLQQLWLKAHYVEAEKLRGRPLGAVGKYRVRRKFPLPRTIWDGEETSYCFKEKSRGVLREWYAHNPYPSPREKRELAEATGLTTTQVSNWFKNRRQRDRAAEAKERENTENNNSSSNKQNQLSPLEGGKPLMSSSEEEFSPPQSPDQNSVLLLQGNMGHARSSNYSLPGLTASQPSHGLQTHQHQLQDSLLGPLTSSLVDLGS
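GST-Six1 + His-Eya2 (5X stock: 250/500 nM); Tris pH 8.0, 300 mM NaCl, 0.05% BSA, 0.02% Tween 20; GSH donor/Ni acceptor beads; 1 h 37 °C dark; AlphaScreen readout.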
CtBP-E1A blk: inhibitors of CtBP/E1A interaction; AlphaScreen GST-E1A/His-CtBP binding, 1536-well; active compounds read low; control for the full effect not named in the record; activity change, % (test concentration not listed); 340,000 tested, 0.49% active; AID 651724; in the data active means activity change below about -65%; inconclusive means about -30% to -65%; inactive means above about -30%; note: % is set by controls: 0 for no effect and ±100 for the full control effect
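GST-E1A and His-tagged CtBP (125 nM each as 5X stock) were preincubated with pin-transferred compound for 2 h at 37 °C in the dark, then glutathione donor and nickel acceptor beads were added for 1 h before AlphaScreen reading.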
PINK1 expr mod: modulators of PINK1 expression. PINK1 immunofluorescence, high-content cytometry, 24 h. Potency, µM (highest dose often 76.6 µM), without a hit: top-dose activation (PINK1 increase), most hits filed as activators. 410,000 tested, 0.2% active. AID 624263; active = well fitted activation curve with a large enough effect; inconclusive = small, poorly fitted or top-dose-only effect; inactive = flat fitted curve, though single readings scatter; cell line not stated here;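 note: potency is the fitted concentration of half-maximal effect; % of control where 0% means no effect; nearly all actives have a fitted effect of over 65% in size; a mitochondrial uncoupler was the plate control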
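Readout is PINK1 immunofluorescence, quantified alongside mitochondrial, cell and nuclear markers by laser-scanning microplate cytometry. Cells from a stable line were exposed to compound titrations (5 concentrations) for 24 hours, with CCCP controls.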
* hit, by the source's call; u = inconclusive; x = not tested or not shown; & = joins results of further samples; [ ] = remark or other dose.

canonical_smiles | D2 agonist | D2 PAM | TRPML1 agonist | Six1-Eya2 blk | CtBP-E1A blk | PINK1 expr mod
CCn1c(-c2cc(-c3ccc(OC(C)C)cc3)nc3ccccc23)n[nH]c1=S | -1.7 | -16.5 | -0.1 | -10.5 | -15.6 | 4.2%[38.3 µM]
O=C(NCC12CC3CC(C1)CC(CNC(=O)N1CCCC1)(C3)C2)N1CCCC1 | 1.2 | -5.0 | -0.9 | 7.5 | 4.0 | -1.8%[38.3 µM]
CCN(Cc1ccccc1)S(=O)(=O)c1ccc(C(=O)Nc2nnc(-c3ccccc3OC)o2)cc1 | 0.6 | -1.4 | -0.6 | -15.4 | -16.3 | 0.3%
Cc1cc(C)cc(N2C(N)=NC(N)=NC2c2ccccc2F)c1 (configuration not stated) | -6.9 | -21.1 | 0.9 | 20.9 | 0.0 | 0.6%
CC(=O)Nc1cccc(/C(C)=N/NC(=O)c2cccs2)c1 | 1.1 | -0.7 | -0.1 | -2.2 | 1.6 | 0.2%
COc1ccc(CN2CCN(C(=O)CCC(=O)c3ccc(C)s3)CC2)cc1OC | -1.8 | -10.1 | 2.0 | -3.5 | -0.4 | 1.4%
COc1ccc(Br)cc1CNC(=O)Cn1nc(C)n2cccc2c1=O | -2.9 | -4.8 | -0.1 | 1.6 | x | -0.4%
Cc1cc(NS(=O)(=O)c2cc(Cl)sc2Cl)no1 | -1.2 | -3.8 | -1.1 | 1.8 | 7.3 | 2.8%
Cc1ccc(C(=O)Nc2ncc3c(n2)CC(c2ccco2)CC3=O)cc1 (configuration not stated) | -1.2 | -0.4 | -0.3 | 0.0 | -6.8 | -4.3%[38.3 µM]
CCOc1c(Cl)cc(CNC(C)(C)CC(C)(C)C)cc1OC | -2.7 | -11.1 | 0.1 | 16.5 | 3.1 | u
COc1ccc(Cn2cc3c(-c4ccc(F)cc4)nnc-3c3cc(OC)c(OC)cc32)cc1 | -5.2 | -8.0 | 1.6 | 1.5 | -13.9 | 9.1%
CC(C)[C@H](NS(=O)(=O)c1ccc(Cl)cc1)C(=O)OCC(=O)NCCN1C(=O)CSC1=O | -3.4 | 0.6 | -0.2 | 4.5 | 1.5 | 0.7%
O=C(Nc1ccc2c(c1)OCO2)c1ccc(Cl)s1 | -0.2 | -16.7 | 0.8 | -7.3 | 8.9 | 24.7%[38.3 µM]
CCOc1cc(C(=O)CCC(=O)OCC(=O)Nc2ccc(C)c(S(=O)(=O)N(C)C)c2)ccc1O | 2.5 | 9.6 | 0.4 | -11.9 | -6.5 | -1.6%
COC1OC(c2ccccc2)=C(c2ccc(C(N)=O)cc2)c2ccc(F)cc21 (configuration not stated) | x | x | -0.3 | -2.7 | -10.3 | 0.4%
O=C1CC(=O)NC(SCC(=O)Nc2ccccc2[N+](=O)[O-])=N1 | -4.4 | 1.5 | -0.8 | -13.8 | 0.0 | 3.1%
COC(=O)Cn1ccc2cc(S(=O)(=O)N3CCCCC3)ccc21 | 0.5 | 3.8 | 0.6&0.0 | -1.5 | 4.9 | 0.4%&2.6%
COc1cc(C(=O)Nc2ccc3c(c2)CCCN3C(=O)c2ccco2)c([N+](=O)[O-])cc1OC | -2.5 | -14.9 | -0.6 | 0.0 | -6.5 | 5.4%
CCCn1c(C)nc2c(c1=O)c1nc3ccccc3nc1n2-c1ccccc1 | -4.4 | -3.7 | 0.0 | 0.9 | 8.8 | -1.1%
O=C(Nc1c2c(nc3c1CCC3)CCCC2)c1ccccn1 | -0.4 | -7.3 | -0.4 | -7.0 | -10.4 | 2.3%
COC(=O)C1=C(C)N(Cc2ccc(OC)cc2)C(=O)C1 | -0.9 | -3.0 | 1.2 | 1.0 | 4.4 | 18.1%[38.3 µM]
O=C(CSCc1ccc(Cl)cc1)Nc1ccc(Br)cc1C(=O)O | -0.2 | 1.8 | 2.3 | 2.4 | 4.3 | 1.0%
O=C(CCc1nnc2n(Cc3ccc(F)cc3)c(=O)c3ccccc3n12)N1CCN(c2ccccn2)CC1 | -5.3 | -5.7 | 2.5 | -2.7 | x | 1.5%
Cc1ccc(/C=C/C(=O)OCC(=O)NCCN2C(=O)CSC2=O)cc1 | 0.1 | -0.4 | -1.0 | -10.8 | u | -1.0%
CC1(c2ccccc2)NC(=O)N(CC(=O)Nc2ccc(Cl)c(S(=O)(=O)N3CCCCC3)c2)C1=O (configuration not stated) | -8.1 | -27.4 | 0.3 | 7.1 | 0.0 | 2.0%
CCn1nnc2cc(C(=O)N(CCOC)CC(=O)Nc3cccc(C)c3C)ccc21 | 0.0 | -7.4 | 0.4 | 0.7 | 2.7 | 2.9%
Fc1ccc(N=c2ssnc2Cl)c(F)c1 | 6.0 | -6.7 | -0.3 | -20.0 | 10.0 | u
COc1ccc(CC2S/C(=N/N=C/c3ccc(O)cc3)NC2=O)cc1 (configuration not stated) | -6.1 | 0.3 | 1.4 | 0.2 | -1.5 | -0.2%
Cn1cc(C(=O)N/N=C/c2cccs2)c2ccccc21 | 1.5 | -13.4 | -0.8 | -16.1 | -10.8 | -1.0%
COc1ccccc1Cn1c(=S)[nH]c2cc(C(=O)NCC(OC)OC)ccc2c1=O | 1.4 | -2.2 | -0.7 | -0.9 | 0.6 | 3.0%
CC1=CC(C)C2(CO)COC(c3ccccc3O)C1C2C (configuration not stated) | -3.3 | 8.8 | -0.3 | -1.4 | 4.3 | 3.6%
COc1ccc(OC)c(CNC(=O)c2ccc(C)c(NC(=O)C3=C(C)OCCS3)c2)c1 | 1.0 | -4.0 | 0.2 | -4.7 | -6.6 | -0.8%
Cc1ccccc1OCCCSc1nc2ccccc2[nH]1 | -0.4 | -16.6 | 2.0 | 5.3 | 13.2 | u
Cc1ccc2[nH]c3c(c2c1)CCC3=O | -1.8 | -10.5 | 0.8 | 8.2 | 0.6 | x
COc1ccc(C(=O)Nc2ccccc2C(=O)NCCCn2ccnc2)cc1 | 1.3 | -6.8 | -0.2 | 0.0 | -0.1 | 0.8%
Cc1cccc(NC(=O)c2sc(NC(=O)COc3ccccc3)c(C#N)c2C)c1C | 3.6 | -15.1 | 0.0 | 10.6 | 9.8 | 3.6%
COc1ccc(C(=O)Nc2c(Cl)cc(Cl)cc2C(=O)NCc2ccco2)cc1 | -2.4 | -13.0 | -0.1 | -2.8 | -1.8 | -7.5%[38.3 µM]
COc1ccc(S(=O)(=O)N2CCC(C(=O)NCCN3CCOCC3)CC2)cc1OC | -8.1 | -5.5 | -0.6 | 5.7 | -1.6 | 4.5%
O=C(CC(C(=O)O)c1ccccc1)c1cccs1 (configuration not stated) | -4.0 | -4.6 | 0.0 | 2.9 | 1.6 | 1.4%
O=C(/C=C/c1cccs1)NNC(=O)c1cccc([N+](=O)[O-])c1 | 0.2 | -3.9 | 0.9 | -9.6 | 5.6 | 1.7%

Reformatted with each value named: part of the list above.
Cc1ccc(/C=C/C(=O)OCC(=O)NCCN2C(=O)CSC2=O)cc1
  D2 agonist: 0.1
  D2 PAM: -0.4
  TRPML1 agonist: -1.0
  Six1-Eya2 blk: -10.8
  CtBP-E1A blk: u
  PINK1 expr mod: -1.0%
CC1(c2ccccc2)NC(=O)N(CC(=O)Nc2ccc(Cl)c(S(=O)(=O)N3CCCCC3)c2)C1=O (configuration not stated)
  D2 agonist: -8.1
  D2 PAM: -27.4
  TRPML1 agonist: 0.3
  Six1-Eya2 blk: 7.1
  CtBP-E1A blk: 0.0
  PINK1 expr mod: 2.0%

Carrying on:
canonical_smiles | D2 agonist | D2 PAM | TRPML1 agonist | Six1-Eya2 blk | CtBP-E1A blk | PINK1 expr mod
CCOP(=O)(OCC)C(Nc1ccc(OC)cc1)c1ccco1 (configuration not stated) | -17.7 | -9.1 | 1.3 | -0.3 | 1.9 | -0.4%
Cc1nnsc1C(=O)N(Cc1ccccc1)C(C)C | -4.3 | -18.8 | -0.7 | -2.5 | x | 0.5%
O=C1C=C(c2ccc(Cl)c(C(F)(F)F)c2)C[C@@H](c2ccc(F)cc2)C1 | 2.6 | 1.7 | 0.9 | 1.3 | 3.9 | 29.3%
O=C1CC[C@@]23CCCN2C(=O)CCCC3C1 (some centres not stated) | -0.4 | x | -0.5 | 1.5 | -24.9 | -0.6%
Cc1ccc(/C=N/N=C2/NC(=O)C(CC(=O)Nc3ccccc3)S2)o1 (configuration not stated) | 2.4 | -4.9 | 4.1 | -0.2 | -9.2 | 1.3%
Cc1cccc(C(=O)N[C@H](C(=O)OCC(=O)NC(=O)c2cccn2C)C(C)C)c1 | -2.6 | 1.0 | -0.9 | -11.3 | -9.9 | 0.7%
CCc1nc2c(OCc3ccc4c(c3)OCO4)cccn2c1N(C=O)Cc1ccc(OC)cc1 | -0.4 | -10.0 | -0.6 | -13.6 | -15.5 | -0.5%
O=C(Cc1ccccc1)Nc1nc(-c2cccc([N+](=O)[O-])c2)cs1 | 2.0 | -7.3 | 0.1 | -5.9 | 3.4 | 2.5%
CCCC(=O)NC(C)c1nc2ccccc2n1C(C)C (configuration not stated) | -7.9 | -9.1 | -0.1 | 3.7 | 0.6 | 1.6%
CN(CCO)c1ccc(/C=N/Nc2nncc3ccccc23)cc1 | 12.1 | 0.0 | -0.7 | -26.3 | x | 2.0%
CCOc1ccccc1NC(=O)C(NCC1(N2CCCCC2)CCCCC1)c1ccccc1 (configuration not stated) | -19.1 | -0.2 | 2.0 | 2.7 | -3.3 | u
Cc1ccc(S(=O)(=O)c2nnn3c2nc(N2CCN(c4ccccn4)CC2)c2ccccc23)cc1C | 0.2 | -2.2 | 0.6 | 6.1 | 6.1 | 0.7%
COc1cc2c(cc1OC)C(c1ccccc1)N(S(C)(=O)=O)CC2 (configuration not stated) | -4.4 | 0.9 | -0.6 | -5.8 | 2.1 | 0.7%
CCCCc1nnc(SCc2ccc(OCC)cc2)n1N | 5.0 | 1.7 | 0.1 | 3.4 | 6.1 | 1.2%
CCOc1ccc(-c2c(C(=O)N/N=C/c3ccc(OC)cc3)nnn2-c2nonc2N)cc1 | -1.1 | -3.7 | 0.4 | -8.3 | 3.5 | 3.5%
Cc1ccc(S(=O)(=O)NC2=NCN(CCOC(=O)c3ccc([N+](=O)[O-])cc3)CN2)cc1 | 1.4 | -3.3 | -0.4 | 3.8 | 4.9 | -2.6%[38.3 µM]
CCOC(=O)N1CCN(C(=O)Cn2ncn3nc(-c4cccs4)cc3c2=O)CC1 | -0.6 | -8.6 | -0.7 | 9.2 | 1.9 | 4.4%
Cc1ccccc1C(=O)O/N=C(\c1ccccc1)c1ccccn1 | u | 13.0 | 4.1 | 3.2 | 0.1 | -0.7%
Cc1nc(N2CCOCC2)nc(N2CCC(C)CC2)c1[N+](=O)[O-] | -2.8 | -16.9 | -0.6 | -10.7 | x | 3.4%
CCn1c2ccccc2c2nnc(SCC(=O)NCCOC)nc21 | -0.2 | -4.5 | 0.1 | -1.0 | 3.7 | 5.1%[38.3 µM]
CCC(C)Cn1c(S(=O)(=O)O)nc2ccccc21 (configuration not stated) | -0.8 | 4.5 | 0.2 | 6.3 | 5.4 | -1.6%
